Compound activity: PubChem, several laboratories
T cruzi repl: blocks replication of Trypanosoma cruzi. inhibition, % (test concentration not listed). 1.4% of 300,000 active. T. cruzi beta-gal in NIH3T3, luminescence, 90 h;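 active = mean inhibition across valid replicates above about 55%, limit read from the data; inconclusive = mean below that limit but half or more replicates reach it; inactive = mean below it, under half of replicates reach it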;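 note: signal also drops with host cell toxicity which is not excluded here; 0% = plate median of DMSO wells and 100% = zero luminescence signal; higher percent means less beta-gal luminescence so fewer parasites; stock transfer was 50 nL into about 50 µL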
Vif TR-FRET: inhibitors of Vif binding to APOBEC3G peptide, primary screen, biochemical, TR-FRET, GST-Vif 1-94, biotin-A3G peptide, dose response retest (AID 1117319); TR-FRET GST-Vif / biotin-A3G peptide binding; higher % means a stronger effect; test concentration not given here; strong numbers were not always called active; one-dose inhibition, %; IC50 in µM for titrated hits; 0.57% of 260,000 active;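 active = above the screen mean plus three standard deviations and confirmed in dose response; inconclusive = results disagree or hit not tested in dose response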;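 note: Vif residues 1-94 fused to GST binding biotinylated APOBEC3G peptide 110-148; 0% = full assay without inhibitor and 100% = GST in place of GST-Vif; retest series ran down from 100 µM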
AF4-AF9 inh: inhibitors of human MLL-AF4/AF9 interaction; P42568; 0.47% of 350,000 active; inhibition, % at 10 µM; AID 651704; AlphaScreen, biotin-AF4 peptide binding to FLAG-AF9;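 active = every replicate reaching a set inhibition limit, whatever the replicate mean, cut at about 25% in these data; inconclusive = mean inhibition reaches that limit but some replicates miss it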;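 note: 0% = plate neutral control median and 100% = total signal loss; the record names both 10 and 1 µM as test concentration; the first replicate is given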
Beta cell apopt: beta cell apoptosis inhibition | INS-1E cytokine-induced death, ATP luminescence, 48 h; percent of positive-control rescue, neutral wells zero | AID 435005 | protection from apoptosis, % (concentration not given with the values) | 0.8% of 300,000 active;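 active = all replicates at 75% or more, or half of them and the mean; inconclusive = half reach 75% but not the mean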;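 note: 0% = cytokine-treated negative control wells and 100% = positive control rescue; higher means more ATP so stronger rescue from cytokine killing; wells of about 40 µL received 100 nL stock; the first replicate is given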
RanGTP-Imp inh: inhibitors of RanGTP-importin-beta interaction, primary screen, biochemical, FRET, CFP-Ran, YFP-importin-beta, homogeneous. cell-free CFP-Ran/YFP-importin-beta FRET ratio. inhibition, % (test concentration not listed). 1.1% of 300,000 active;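 active = most replicates above 15%; inconclusive = exactly half above 15%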;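 note: 0% = DMSO wells and 100% = Ran loaded with GDP instead of GTP; wells of about 40 µL received 100 nL stock; the first replicate is given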
LANA-H2B inh: blocks KSHV LANA binding to histone H2A/H2B | Q9QR71 | cell-free LANA-H2A/H2B peptide, fluorescence polarization | inhibition, % (no concentration beside the values) | 0.6% of 320,000 active | AID 2629; in the data active = inhibition mostly above about 10%, no sharp cut-off; inactive = mostly below about 6.7%;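 note: stock transfer was 7.5 nL into about 10 µL; 0% = median of vehicle wells and 100% = median of positive control wells; one replicate is shown; the record names a cut of 25% in any replicate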
Target sequence (Q9QR71 whole entry, looked up): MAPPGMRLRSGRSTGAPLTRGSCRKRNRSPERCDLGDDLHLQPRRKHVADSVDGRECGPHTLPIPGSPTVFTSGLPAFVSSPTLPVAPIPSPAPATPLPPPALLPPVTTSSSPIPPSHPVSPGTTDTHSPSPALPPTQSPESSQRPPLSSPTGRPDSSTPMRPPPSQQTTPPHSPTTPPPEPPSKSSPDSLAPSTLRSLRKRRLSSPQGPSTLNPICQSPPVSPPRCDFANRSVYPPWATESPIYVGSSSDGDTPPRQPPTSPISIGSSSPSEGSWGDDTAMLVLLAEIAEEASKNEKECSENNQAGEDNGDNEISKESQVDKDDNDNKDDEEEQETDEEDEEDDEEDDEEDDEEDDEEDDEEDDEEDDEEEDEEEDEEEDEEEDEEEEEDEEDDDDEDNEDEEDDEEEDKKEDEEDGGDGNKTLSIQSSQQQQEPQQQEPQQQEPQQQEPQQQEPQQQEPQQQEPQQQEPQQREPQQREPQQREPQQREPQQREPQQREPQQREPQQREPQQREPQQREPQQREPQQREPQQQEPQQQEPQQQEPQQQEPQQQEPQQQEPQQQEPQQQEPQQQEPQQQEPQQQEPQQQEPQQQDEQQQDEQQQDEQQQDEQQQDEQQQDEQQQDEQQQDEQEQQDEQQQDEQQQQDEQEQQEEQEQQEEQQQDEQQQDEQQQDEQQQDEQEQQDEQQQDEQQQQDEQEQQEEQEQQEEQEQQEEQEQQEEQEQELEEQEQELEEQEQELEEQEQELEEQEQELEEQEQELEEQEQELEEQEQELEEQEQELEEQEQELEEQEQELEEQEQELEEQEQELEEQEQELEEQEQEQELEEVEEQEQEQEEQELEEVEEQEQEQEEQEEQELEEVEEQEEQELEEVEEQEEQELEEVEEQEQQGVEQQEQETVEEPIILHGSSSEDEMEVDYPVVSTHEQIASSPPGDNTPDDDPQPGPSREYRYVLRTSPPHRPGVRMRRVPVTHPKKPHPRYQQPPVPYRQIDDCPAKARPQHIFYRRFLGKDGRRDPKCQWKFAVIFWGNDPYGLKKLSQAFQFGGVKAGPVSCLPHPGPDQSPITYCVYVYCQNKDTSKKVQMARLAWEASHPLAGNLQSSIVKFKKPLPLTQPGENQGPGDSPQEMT
Calb FLC: affects C. albicans growth with fluconazole | C. albicans CaCi-2 (fluconazole-resistant clinical isolate) + fluconazole, Alamar Blue growth, 48 h | growth inhibition, % (test concentration not listed) | 0.57% of 300,000 active;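 active = most replicates above 75%; inconclusive = exactly half above 75%; inactive = most below 75%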;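 note: all wells also contain fluconazole at 8 µg/ml as a sub-toxic cotreatment; 0% = median of DMSO wells and 100% = median of geldanamycin control wells; wells of about 8 µL received 7.5 nL stock; the first replicate is given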
Bfl-1 A1 inh: inhibitors of the anti-apoptotic protein A1, read as caspase activation | caspase activation, % (no concentration beside the values) | 0.066% of 330,000 active | AID 2462 | MEF A1-2A-BIM cells, Caspase-Glo 3/7 luminescence, 3 h; percent of clofoctol response, vehicle zero;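 active = over half of replicate activation scores above 10%, or exactly half above 10 with the replicate mean above 10; inconclusive = replicate mean below 10 yet half the replicates above 10; inactive = over half of replicates below 10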;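 note: wells of about 30 µL received 50 nL stock; many hits fall short of the cut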
* marks the source's active call; other numbers are inactive results; ? = inconclusive; . = no result given; & = joins results of further samples.

Molecule,T cruzi repl,Vif TR-FRET,AF4-AF9 inh,Beta cell apopt,RanGTP-Imp inh,LANA-H2B inh,Calb FLC,Bfl-1 A1 inh
Cn1c(CCNC(=O)c2ccco2)nc2ccccc21,3,0%,0.3,.,-2.3,1.2,-9,-0.6
O=C(NC1CCSc2ccccc21)c1cccc(S(=O)(=O)N2CCOCC2)c1 (stereo not given),-4,-3%,-29,.,-3.5,-3.5,7,0.3
Cc1nc(N)sc1C(=O)NN,-14,.,-1.0,0,3.9,1.5,-3,-0.2
Cc1ccc(C2=NO[C@@](CC(=O)O)(C(=O)Nc3ccc4c(c3)OCCO4)C2)cc1,-7,-7%,-5.4,-3,?,3.9,1,0.2
O=C(CNC(=O)c1nc[nH]c1C(=O)N1CCc2ccccc2C1)OCc1ccccc1,-13,.,-5.6,4,0.5,0.1,-24,0.2
COc1ccc(OCCCC(=O)Nc2cccc([N+](=O)[O-])c2)cc1,15,2%,.,2,2.1,2.9,-22,-0.3
CC(=O)Oc1ccc(C(=O)Nc2ccccc2C(=O)NCC(C)C)cc1,-6,2%,.,-14,?,2.3,3,0.3
COCCN(C(=O)COC(=O)CSc1ccc2ccccc2c1)c1c(N)n(Cc2ccccc2)c(=O)[nH]c1=O,-3,-4%,6.3,.,-2.7,-5.3,3,0.6
Cc1cc(C)c(NC(=S)N(CCN(C)C)C(C)c2cccnc2)c(C)c1 (stereo not given),43,8%,-0.9,-1,4.2,-3.5,-10,-0.9
COc1ccc(NC(=O)C(NC(C)=O)C(=O)NCc2ccccc2OC)cc1 (stereo not given),0,20%,.,-3,2.3,0.2,0,0.7
CC1(C)CC(=O)C2=C(C1)Nc1ccccc1NC2c1cccc(F)c1 (stereo not given),19,.,-0.5,1,0.4,1.1,1,0.4
COC(CNC(=O)C(=O)Nc1cc2c3c(c1)CC(=O)N3CCC2)OC,4,.,1.2,-3,-2.1,8.6,-17,1.8
O=C(NNC1CC(=O)N(c2ccccc2)C1=O)c1ccco1 (stereo not given),2,0%,-2.2,-7,-2.3,0.5,-9,-0.1
COc1ccccc1NS(=O)(=O)c1cc(N)ccc1N1CCCCC1,5,.,2.2,-3,4.5,-1.9,-6,-0.1
NCCc1c(C(=O)O)[nH]c2ccc([N+](=O)[O-])cc12,0,-4%,-1.1,0,4.3,-2.3,13,-0.2
O=C(Cn1cc([N+](=O)[O-])ccc1=O)NCC(=O)Nc1ccc(F)c(F)c1F,.,-7%,-1.7,-1,.,11,.,-1.3
C=CCSc1n[nH]c(-c2ccc(OCCCC)cc2)n1,25,3%,5.8,4,2.2,-1.4,?,-0.1
CC1(C)CC(=O)C=C(Nc2ccccc2C#N)C1,-4,.,4.5,2,5.2,-1.1,4,-1.2
O=C(NCCNC(=O)c1cc(Cl)ccc1Cl)c1cnccn1,-8,.,0.2,-17,-2.6,-1.8,0,-0.6
Cc1ccc(NC(=O)NC2(C(=O)NCc3ccco3)CCCCC2)cc1,-3,-2%,.,.,-2.4,2.2,-18,0.9
Cc1cccc2cc(C#N)c(SCC(=O)NCc3cccs3)nc12,-4,.,1.7,2,?,-4.0,4,-1.0
CCN1CCN(c2ccc(S(=O)(=O)N3CCOCC3)cc2NC(=O)C(C)Oc2ccc(F)cc2)CC1 (stereo not given),.,9%,3.6,-3,.,-11,.,-0.1
CCC(=O)NC(C)C(c1cccs1)N1CCOCC1 (stereo not given),-11,-12%,.,0,0.3,5.5,-22,1.1
CN(C)S(=O)(=O)c1cccc(NC(=O)c2cccc(NS(=O)(=O)c3ccccc3)c2)c1,12,-5%,2.5,11,?,-3.7,-2,0.5
O=C(CCc1nnc(CCC2CCCCC2)o1)NCCc1cccnc1,-11,.,-1.6,1,-4.6,-0.9,4,0.7
C/C(=N\NC(=O)c1cccc(F)c1)c1cccc(NC(=O)c2ccc(F)cc2)c1,12,3%,-1.4,2,4.4,0.6,-5,-0.1
COc1cc(NC(=O)C2CCN(c3cnccn3)CC2)cc(OC)c1,5,.,-0.2,-2,-1.8,-3.8,16,-0.8
COc1ccc(CCNC(=O)c2ccc(CNS(=O)(=O)c3cc(C)ccc3C)cc2)cc1OC,14,-2%,.,-4,-0.3,-0.7,-13,-0.1
CCO[C@H]1OC(C(=O)Nc2ccccc2)=C[C@@H](c2coc3ccccc3c2=O)[C@@H]1CCCO,2,29%,0.0&-26,-4,?,6.4,-1,0.2
COc1cc2ccccc2cc1C(=O)NC(=S)Nc1cccc(C(=O)O)c1,11,-5%,-0.1,-20,-8.6,3.7,?,0.3
CCCCNc1nc2c(c(=O)n(Cc3ccccc3)c(=O)n2C)n1C,3,-10%,-3.5,5,0.1,4.2,3,-0.1
O=C(C1=C[C@H](c2csc3ccccc23)C[C@H](OCCCCO)O1)N1CCN(Cc2ccc3c(c2)OCO3)CC1,31,-3%,1.7,10,1.3,-3.4,19,-0.7
CCOC(=O)c1c(C)n(C)c2ccc(OCC(O)CNCCc3ccccc3)cc12 (stereo not given),55*,-9%,7.9,-3,3.3,-4.6,-18,0.5
S=C(Nc1cccnc1)NC1CC2CCC1C2 (stereo not given),-23,.,3.9,-4,-1.4,-1.3,-6,-0.4
COCCCN1C(=O)N(c2ccccc2)C(=O)C1CC(=O)Nc1ccc(F)cc1 (stereo not given),-12,0%,1.8,.,-0.4,-1.4,-6,0.4
COc1cc(OC)cc(C(=O)OCC(=O)Nc2ccc3[nH]c(=O)[nH]c3c2)c1,-3,-1%,0.3,4,-1.2,6.3,11,-0.8
COCCCn1nnnc1SCC(=O)N1CCCC1,-3,25%,.,-2,?,1.8,-28,0.7
Nc1c(C(=O)OCC(=O)Nc2ccc(Cl)cc2[N+](=O)[O-])[nH]c(=O)[nH]c1=O,-7,-4%,-4.4,4,-2.0,4.7,-1,0.0
NC(=S)N/N=C1\CC(n2nnn(-c3cccc(Cl)c3)c2=S)C2COC1O2 (stereo not given),8,15%,4.3,-8,?,-1.3,3,-0.7
O=C(Nc1ccccc1Cc1ccccc1)C1CC(=O)N(c2ccc3c(c2)OCCO3)C1 (stereo not given),1,?,.,-4,0.7,0.2,13,0.5
O=C(CNC(=O)c1ccco1)OCc1ccccc1F,.,7%,-3.2,-8,.,1.2,.,?
COC(=O)c1ccc(C)c(NC(=O)CCSc2ccc(C)cc2)c1,8,18%,.,4,-1.6,-1.5,6,0.2
COC(=O)c1c(NC(=O)/C=C/c2ccco2)sc2c1CCC2,10,?,-1.8,-2,5.2,0.9,17,0.4
COc1ccccc1CCn1c(N)cc(=O)[nH]c1=O,6,6%,-1.9,-3,-1.5,-2.0,9,-1.0
Cc1ccc(C)n1NC(=O)c1cccc(Cl)c1,10,2%,.,-3,-0.9,0.7,-5,1.3
Cc1ccc(/C([O-])=C(/C(=S)NCc2ccccc2)[n+]2ccccc2)cc1[N+](=O)[O-],3,-5%,3.5,-3,4.3,6.1,-1,0.1
O=C(NN=Cc1c(O)ccc2ccccc12)c1ccc2c(c1)OCO2,.,.,-4.0,-6,.,0.1,.,1.2
Cc1ccc2c(c1)COc1c3ccc(C(=O)NC(C)C)cc3nn1-2,-6,-7%,.,3,2.2,-4.4,-4,-6.0
Cc1ccccc1C(=O)NC1CCN(C(=O)N2CCOCC2)CC1,-14,5%,.,2,-0.8,-0.2,-13,0.8
COc1ccc(Oc2nc(OC)cc(OC)n2)cc1,-11,-1%,-6.6,-2,3.4,0.3,-3,0.5
CCCC1(c2ccccc2)NC(=O)N(CC(=O)Nc2cc(S(=O)(=O)N3CCOCC3)ccc2Cl)C1=O (stereo not given),5,5%,-0.5,-29,1.8,2.4,10,-0.1
N#Cc1nc(COc2cccc(Cl)c2)oc1N1CCN(c2ccccc2)CC1,3,3%,6.3,-1,-2.7,-2.3,-38,1.3
COC(=O)c1[nH]c2ccc(F)cc2c1NS(=O)(=O)c1ccc(OC)cc1OC,-3,-3%,.,-6,-11,0.5,-10,-0.3
CCCCn1c(SCC(=O)NC(C)(C)C)nnc1-c1ccco1,2,1%,-0.1,-6,-2.4,0.5,3,-0.1
COc1ccc(NC(=O)COC(=O)Cc2ccsc2)c(OC)c1,.,2%,-8.4,-3,.,1.3,.,1.4
O=C1N(Cc2cccc(Cl)c2)C[C@@H]2C[C@@H](c3ccco3)N3CCC[C@@]123,22,-4%,1.5,-3,-5.1,-2.8,-3,-0.7
CC(=O)Nc1cc(C(=O)N2CCCC2)ccc1Sc1ccc(C)cc1,-5,1%,.,0,2.5,-2.3,2,0.1
O=C(CN(c1cccc([N+](=O)[O-])c1)S(=O)(=O)c1ccccc1)NCc1ccccc1,11,.,5.6,-7,3.3,0.0,-5,0.4
O=C1OC(c2ccc(Cl)cc2)=N/C1=C\C=C\c1ccco1,-2,?,0.2,-4,-0.3,3.9,-2,-0.6
Cc1cc(Nc2ccc(Br)cc2)nc(-c2ccccc2O)n1,26,-2%,-13,13,2.3,1.5,3,-0.1

(further entries)
Molecule,T cruzi repl,Vif TR-FRET,AF4-AF9 inh,Beta cell apopt,RanGTP-Imp inh,LANA-H2B inh,Calb FLC,Bfl-1 A1 inh
Cc1ccc(C(=O)N(C)c2nnc(-c3ccncc3)s2)cc1,7,4%,3.6,3,-4.8,-1.8,1,-0.2
O=C(NC1CCCCC1)N1CCN(S(=O)(=O)c2ccc(F)cc2)CC1,-6,11%,-1.0,1,-2.8,17*,8,0.0
O=C1c2cccc3cccc(c23)N1CN1CCN(c2ccccn2)CC1,-3,-2%,.,5,2.5,-4.6,14,-0.2
Cc1cccc(S(=O)(=O)Nc2ccc3c(c2)OCCO3)c1,1,14%,1.5,-3,2.8,3.4,-23,0.1
CCOc1ccc(NS(=O)(=O)c2ccc3c(c2)CCN3C(=O)CCC(=O)O)cc1,7,6%,.,-7,28*,7.4,-5,0.2
O=C(COc1ccc2ccc(=O)oc2c1)OCc1ccccc1,3,1%,-8.2,-3,0.9,1.1,-4,-0.2
Cc1nn(-c2ccc(F)cc2)c(Cl)c1/C=C/C(=O)N1CCNC(=O)C1,-9,16%,13,-5,-0.9,2.1,-24,0.7
COc1ccc2[nH]c3nc(SCc4nnc(-c5ccc(C)cc5)o4)nnc3c2c1,17,0%,.,27,-0.2,0.5,-5,0.1
COc1cccc(C(=O)N(C)CC(=O)Nc2ccc(F)c(F)c2F)c1,-7,1%,-0.7,-1,-4.5,0.7,-2,1.3
Cc1ccc2nc(SCc3nc4ccccc4c(=O)[nH]3)[nH]c2c1,7,-2%,-5.7,-3,?,-1.6,51,-0.7
CCOC(=O)/C(C#N)=C1/C=CN(C)C(C)=N1,-8,27%,.,.,-0.3,-5.8,2,-0.2
CCCCn1c(SCC(=O)NC2CC2)nc2ccccc2c1=O,16,-5%,-0.5,5,3.7,1.3,?,-1.3
Cn1c(N)c(C(=O)COC(=O)C2(c3cccc(F)c3)CCCC2)c(=O)n(C)c1=O,3,0%,.,-5,2.9,4.3,-2,-0.4
Cc1ccc(-c2noc(CSc3nnc(-c4cccs4)n3C)n2)cc1,11,-1%,.,3,-0.5,0.2,6,1.0
Cc1cc(C)cc(N/C(N)=N/c2nc(C)cc(C)n2)c1,-29,-9%,-5.9,0,-1.7,-0.2,-23,0.3

Compounds were not picked by outcome; any-hit rate near 4.3%.
